Compound activity (PubChem)
RVFV N-RNA inh – inhibitors of RVFV nucleoprotein–RNA binding, primary screen, biochemical, fluorescence polarization. RVFV N-RNA binding; active compounds read low. P21700. AID 651828, 2012. % bound, % (concentration not given with the values). 0.1% of 20,000 active;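 active = between 0 and 58% in either replicate with normal brightness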;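 also: 100 nL library stock added to about 12 µL; 100% = protein and probe without compound and 0% = probe alone; numbers are from one replicate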
Target sequence (P21700 whole entry, looked up): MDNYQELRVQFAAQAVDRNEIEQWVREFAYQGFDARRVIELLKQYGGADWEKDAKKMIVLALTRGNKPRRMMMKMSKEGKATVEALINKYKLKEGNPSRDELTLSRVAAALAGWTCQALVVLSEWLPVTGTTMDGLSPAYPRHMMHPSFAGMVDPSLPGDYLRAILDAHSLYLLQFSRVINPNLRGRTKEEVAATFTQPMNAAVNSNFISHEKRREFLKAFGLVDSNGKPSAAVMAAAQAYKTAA
Active calls of the source: *; & = joins results of further samples. Some of the compounds tested (hit frequency here may not be typical).

canonical_smiles | RVFV N-RNA inh
CCOC(=O)c1cnn(-c2ncnc3sc4c(c23)CCN(C(=O)OCC)C4)c1N | 100.2
NC(=O)C1(N2CCCCC2)CCN(C(=O)c2ccccc2)CC1 | 97.2
COCCNC(=O)c1cc(Br)cs1 | 96.5
Cc1nn(-c2ccccc2)nc1C(=O)Nc1ccccc1C(=O)NCC1CC1 | 90.8
Nc1ccc(CCNc2ncnc3c2ncn3C2OC(CO)C(O)C2O)cc1 (stereo not given) | 96.5
CCOC(=O)c1ccc(NC(=O)Cn2c3c(sc2=O)C2c4ccccc4OCC2CS3)cc1 (stereo not given) | 101.0
CC(C)N1C(=O)CC(N2CCOCC2)C1=O (stereo not given) | 92.9
Cc1cccc(C)c1NC(=O)C1C2C=CC(C2)C1C(=O)O (stereo not given) | 90.9
CC(C)n1c(-c2ccccc2)nc(=S)c2c1CCCC2 | 99.0
Cc1ccc2c(c1)NC(=O)c1cc(S(=O)(=O)N3CC(C)OC(C)C3)ccc1O2 (stereo not given) | 93.4
CCOC(=O)c1c(-c2cccs2)csc1NC(=O)CN1CCC(C)CC1 | 92.6
COC(=O)c1ccsc1NC(=O)c1cccs1 | 97.6
Cc1ccc(N2CC(O)=C(c3nc4ccccc4s3)C2=N)c(C)c1 | 97.0
COc1ccc(OCC(=O)Nc2ncccc2C)cc1 | 88.5
CSc1ccccc1C(=O)N1CC(C)OC(C)C1 (stereo not given) | 95.5
CNC(=O)c1cc2c(s1)CCCCCC2 | 90.9
O=C(NCc1n[nH]c(=O)c2ccccc12)c1ccco1 | 93.1
O=C(NCC(c1ccco1)N1CCc2ccccc2C1)c1ccccc1 (stereo not given) | 93.5
O=C(NNc1nc2c(F)cccc2s1)c1ccc(S(=O)(=O)N2CCCC2)cc1 | 97.6
CCOC(=O)C1=C(C)NC(C)=C(C(=O)OCC)C1c1ccccc1/C=C/C(=O)OC(C)(C)C | 102.4&94.7
Cc1oc(S(=O)(=O)N2CCOCC2)cc1C(=O)O/N=C(\N)c1ccc(C(C)(C)C)cc1 | 97.7
Cn1c(=NC(=O)CS(=O)(=O)c2ccccc2)sc2ccccc21 | 92.4
COc1ccc(-c2n[nH]c(=S)n2/N=C/c2c(C)nn(-c3ccccc3)c2C)cc1OC | 95.3
O=C(NCCn1ccc2ccccc21)c1ccc(S(=O)(=O)N2CCCCC2)cc1 | 98.1
N#Cc1cc(Sc2nc3ccccc3s2)c(-n2nnc3ccccc32)cc1C#N | 95.4
O=C(C1CCCN1S(=O)(=O)c1ccccc1)N1CCCCC1 (stereo not given) | 84.2
O=C(O)c1cccnc1Br | 92.3
CCc1ccc(CC)c(S(N)(=O)=O)c1 | 101.9
COc1cc(NC(=O)c2ccccc2)cc(OC)c1OC | 96.4
Cc1ccc(OCC(=O)N2c3ccccc3CC2C)cc1 (stereo not given) | 93.6
CCCn1c(=NC(=O)CCS(=O)(=O)c2ccccc2)sc2cc(S(N)(=O)=O)ccc21 | 107.4
CC(C)(C)NC(=O)CSc1nnc(NC(=O)Cn2cnc3ccccc3c2=O)s1 | 88.0
O=C(Cn1cnc2ccccc2c1=O)Nc1ccc(S(=O)(=O)N2CCCC2)cc1 | 98.2
COc1ccc(C2CC(c3cccs3)=NN2C(=O)CS(=O)(=O)c2cn(C)c3ccccc23)cc1 (stereo not given) | 91.3
N=Nc1[nH]c(N)c2ccccc12 | 101.7
COC(=O)c1ccc(CN2CCCC(C)C2)cc1 (stereo not given) | 100.5
S=c1[nH]nc(-c2ccccc2)n1C1CCCC1 | 92.1
Cn1cc[nH]c1=S | 98.7&95.2
CCC(=O)Nc1ccc(N2CCN(C)CC2)c(Cl)c1 | 96.9
CC(S)C(=O)NCC(=O)O (stereo not given) | 106.9
O=C1NC(=O)/C(=C/C(=O)N2CCN(C(=O)/C=C3\SC(=O)NC3=O)CC2)S1 | 91.7
Cc1cc(NCCO)nc(-c2ccc(Br)cc2)n1 | 86.0
O=C(O)CCCn1cc(NC(=O)c2ccc(Cl)cc2)cn1 | 96.0
O=C1CCCCC1Nc1ccccc1 (stereo not given) | 101.4
NS(=O)(=O)c1ccc(CNC(=O)NC23CC4CC(CC(C4)C2)C3)cc1 | 110.1
CS(=O)(=O)NNc1nccc(-c2cccnc2)n1 | 97.3
CC(C)NC(=O)N(Cc1cccnc1)Cc1ccc(Cl)cc1Cl | 99.8
CC(=O)Nc1ccc2ccccc2c1 | 91.1
CCOC(=O)C(C#N)=c1sc(=C(C#N)C(=O)OCC)s1 | 91.2
Nc1nonc1-n1cc(CN2CCCCC2)nn1 | 97.1

Next section
canonical_smiles | RVFV N-RNA inh
Cc1ccc(C)c(N=C(N)N=C(N)N)c1 | 84.1
CCC1(C)Cc2sc3c(=O)[nH]c(=S)[nH]c3c2CO1 (stereo not given) | 89.8
Fc1ccc(-c2noc(-c3ccc4c(c3)CCO4)n2)cc1 | 93.9
COc1ccc(/C=C2\SC(=O)N(Cc3ccccc3Cl)C2=O)cc1O | 96.2
O=C1/C(=N\O)CC2(C/C1=N/O)OCCO2 | 92.5
NCCCCNCCCN | 106.5
COCC(=O)O[C@]1(CCN(C)CCCc2nc3ccccc3[nH]2)CCc2cc(F)ccc2[C@@H]1C(C)C | 99.6
O=C(Nc1ccccc1)c1ccc2c(c1)C(=O)N(CC1CCCO1)C2=O (stereo not given) | 97.9
CCOC(=O)c1cc(C)[nH]n1 | 92.5
COc1ccc(/C=C2\SC(=S)N(CCC(=O)N(C)C3CCS(=O)(=O)C3)C2=O)cc1 (stereo not given) | 94.0
CCc1noc(C)c1C(=O)NCCN(C)C | 104.3
Cc1cc(Cl)cc2sc(NC(=O)C3CC3)nc12 | 91.7
N#Cc1c2ccccc2c(C#N)c2ccccc12 | 97.0
CC(C)N(CCC#N)C(=O)Nc1ccccc1Cl | 98.1
N#C/C(=C/c1ccc(Br)o1)c1ccc(C(=O)O)cc1 | 97.9
COc1ccc(-c2nc(SC)n(C(=O)c3ccccc3OC)n2)cc1 | 90.7
Cc1nonc1-c1cn2cc(Br)cc(Br)c2n1 | 93.4
O=C1CS/C(=C/C(=O)c2ccc(Cl)cc2)N1 | 92.4
CN1CCN(C2CC(=O)N(C3CCCCC3)C2=O)CC1 (stereo not given) | 85.1
CC1=C(/C=C/C(C)=C/C=C/C(C)=C\C(=O)O)C(C)(C)CCC1 | 93.7&85.1
CCOC(=O)c1csc(-c2ccccc2F)n1 | 96.7
CC1CCCC(C)N1C(=O)C1CCCCC1C(=O)O (stereo not given) | 97.6
N#Cc1c(N)nc2c3c1NC(O)(c1ccccc1)C(C#N)C3c1cc(Cl)ccc1O2 (stereo not given) | 92.9
CCCCN(CC)S(=O)(=O)c1ccc(C(=O)Nc2nnc(COC)o2)cc1 | 98.5
CN(C)C(=O)Oc1ccc2ccc(OC(=O)N(C)C)cc2c1 | 99.7
CCCCN(C(=O)c1cccs1)C1CCS(=O)(=O)C1 (stereo not given) | 104.5
CNNC(=S)NCCC1=CCCCC1 | 99.1
Nc1ccc(-c2nc3ccc(-c4nc5ccc(N)cc5[nH]4)cc3[nH]2)cc1 | 97.1
C/C(=N\NS(C)(=O)=O)c1ccc(Br)cc1 | 93.1
CNC(=O)COc1coc(CN2c3ccccc3CC2C)cc1=O (stereo not given) | 86.2
CCCN1C(=O)S/C(=C\C(=O)O)C1=O | 101.1
Cc1c(NC(=S)NCCCN2CCOCC2)c(=O)n(-c2ccccc2)n1C | 92.7
CCCN(CCc1ccccc1)C1CCc2c(O)cccc2C1 (stereo not given) | 95.4
CC(=O)OC1C(C)OC(Oc2c(-c3ccc(O)cc3)oc3cc(O)cc(O)c3c2=O)C(O)C1OC(C)=O (stereo not given) | 103.2
CC(=O)Nc1c(C(=O)N2CCCCCC2)cnn1-c1ccccc1 | 88.0
Nc1c(-c2ccccc2)c(CN2CCOCC2)nn1-c1ccc(F)cc1 | 98.7
NS(=O)(=O)c1ccc(C(=O)Nc2ccc(-c3cn4c(n3)SCC4)cc2)cc1 | 103.9
CN1C2CCC1CC(OC(=O)CCN1CCCC1)C2 (stereo not given) | 96.9
NC(=O)CC(=O)NC12CC3CC(CC(C3)C1)C2 | 98.2
Nc1nc2ccc(Cl)cc2c2nc(-c3ccco3)nn12 | 100.7&108.6
Nc1cc(=O)[nH]c(SCCSc2ccccc2)n1 | 96.8
CC(=O)N1C=CN(C(C)=O)C(c2cn(C)c3ccccc23)C1c1cn(C)c2ccccc12 (stereo not given) | 97.0
O=C(CN1CCCCCC1)NCc1ccccc1 | 95.5
C#CC(OC(=O)c1ccccc1C(=O)O)c1ccccc1 (stereo not given) | 98.0
c1c2c(nc3c1CCCC3)CCCC2 | 89.9
CCOC(=O)c1cc(/C(C)=N/NS(=O)(=O)c2cc(C(F)(F)F)cc(C(F)(F)F)c2)on1 | 95.7
Cc1c(C(=O)n2cnc3ccccc32)oc2ccccc12 | 100.1
Cn1c(Cc2nc(-c3cnccn3)no2)nnc1SCc1ccccc1 | 87.8
Cn1cc(S(=O)(=O)Cc2ccc(Br)cc2)c2ccccc21 | 95.4
Brc1ccccc1Cn1cnc2ccccc21 | 96.5

Next part, overlapping the part above by 2 compounds.
canonical_smiles | RVFV N-RNA inh
Cn1cc(S(=O)(=O)Cc2ccc(Br)cc2)c2ccccc21 | 95.4
Brc1ccccc1Cn1cnc2ccccc21 | 96.5
CN(C)/C=N/c1c(C#N)cnn1-c1ccccc1 | 89.9
CC(=O)Nc1ccc(S(=O)(=O)N(C2=NCC(C)S2)c2ccccc2)cc1 (stereo not given) | 102.3
C=CCNC(=O)c1cccc2c1-c1ccccc1C2=O | 85.3
Clc1ccc(-c2nc(-c3ccccc3)no2)cc1 | 97.4
O=C(CCC1COc2ccccc2O1)N1CCN(Cc2ccccc2)CC1 (stereo not given) | 102.8
COCCOC(=O)c1c(C)oc2cc(Br)c(OC(C)C(=O)OC)cc12 (stereo not given) | 94.9
Cc1c2oc3c(C)ccc(C(=O)N[C@@H]4C(=O)N[C@H](C(C)C)C(=O)N5CCC[C@H]5C(=O)N(C)CC(=O)N(C)[C@@H](C(C)C)C(=O)O[C@@H]4C)c3nc-2c(C(=O)N[C@@H]2C(=O)N[C@H](C(C)C)C(=O)N3CCC[C@H]3C(=O)N(C)CC(=O)N(C)[C@@H](C(C)C)C(=O)O[C@@H]2C)c(N)c1=O | 97.7
Oc1cc2c(cc1O)C(c1ccccc1)CNCC2 (stereo not given) | 96.4
NN1C(=O)/C(=C/c2cccs2)SC1=S | 97.4
CCCNCc1cc(OCC)c(OCC(N)=O)cc1Br | 92.4
O=C(NN1C(=O)c2ccccc2C1=O)C(O)c1ccccc1 (stereo not given) | 96.9
CCC(C)NC(=O)CN1C(=O)C2C3C=CC(C3)C2C1=O (stereo not given) | 92.2
CCOC(=O)Cc1csc(-c2ccccc2F)n1 | 95.3
CCCc1cc(=O)[nH]c(SCC(=O)N2CCC(C)CC2)n1 | 95.2
O=c1c2ccccc2nc2n1CCO2 | 90.5
Nn1c(SCC(=O)N2CCc3ccccc32)nncc1=O | 93.6
CC(C)(O)C#Cc1ccccn1 | 95.0
Nc1nc2c(nc(SCc3ccccc3Br)n2C2OC(CO)C(O)C2O)c(=O)[nH]1 (stereo not given) | 99.4
C=CCn1c(O)c(C=NCC)c(=O)[nH]c1=S | 113.2
c1ccc(N2CCN(C3CCc4ccccc4C3)CC2)cc1 (stereo not given) | 92.5
CC(=O)N(C)C1=C(O)c2ccccc2C(=O)C1=O | 99.7
Nc1nc(N2CCOCC2)ncc1S(=O)(=O)c1ccc(C(F)(F)F)cn1 | 95.0
C=CCOC(=O)C1CC=CCC1C(=O)Oc1ccc(F)cc1F (stereo not given) | 99.4
N/N=C1\CCCc2c1[nH]c1ccc(F)cc21 | 100.5
CN(C)C1c2cccc3cccc(c23)C1NS(C)(=O)=O (stereo not given) | 97.2

Of the compounds above, these have an aryl methoxy group.
canonical_smiles | RVFV N-RNA inh
COc1ccc(OCC(=O)Nc2ncccc2C)cc1 | 88.5
COc1ccc(-c2n[nH]c(=S)n2/N=C/c2c(C)nn(-c3ccccc3)c2C)cc1OC | 95.3
COc1cc(NC(=O)c2ccccc2)cc(OC)c1OC | 96.4
COc1ccc(C2CC(c3cccs3)=NN2C(=O)CS(=O)(=O)c2cn(C)c3ccccc23)cc1 (stereo not given) | 91.3
COc1ccc(/C=C2\SC(=O)N(Cc3ccccc3Cl)C2=O)cc1O | 96.2
COc1ccc(/C=C2\SC(=S)N(CCC(=O)N(C)C3CCS(=O)(=O)C3)C2=O)cc1 (stereo not given) | 94.0
COc1ccc(-c2nc(SC)n(C(=O)c3ccccc3OC)n2)cc1 | 90.7

(further entries)
canonical_smiles | RVFV N-RNA inh
Cc1ccc(C(CCN)c2ccco2)cc1 (stereo not given) | 108.1
CCS(=O)(=O)CCSc1nc(C)cc(C)c1C#N | 108.5
CC(C)(C)OC(=O)N1CCCN(S(=O)(=O)c2ccc(-n3cccn3)cc2)CC1 | 86.3
CCOC(=O)[C@H](CCc1ccccc1)N[C@@H](C)C(=O)N1CCC[C@H]1C(=O)O | 99.7
Cc1ccc(S(=O)(=O)NC(C)C(c2cccs2)N2CCN(C)CC2)cc1 (stereo not given) | 97.7
CC(=O)NCCc1c[nH]c2ccccc12 | 95.1
CCOc1cccc(/C(O)=C2/C(=O)C(=O)N(Cc3ccncc3)C2c2ccccc2)c1 (stereo not given) | 95.9
O=C(CN1CCCc2ccccc21)Nc1ccccc1 | 98.0
Nc1cccc(F)c1-c1ncon1 | 105.1
S=C(c1ccccn1)N1CCN(C(=S)c2ccccn2)CC1 | 96.1
CCN(C(=O)N(C)C)c1ccccc1C | 94.9
CCC1(C)OC(=O)N(C)C1=O (stereo not given) | 99.8
CC[N+](CC)(CC)CC | 91.9
CS(=O)(=O)c1nc2ccccc2n1C/C=C/c1ccccc1 | 92.1
